Screening data deposited in PubChem BioAssay by several laboratories.
MT1-MMP act inh: blocks activation of human MT1-MMP | 0.061% of 360,000 active | AID 651647 | GFP/RFP ratio change, % at 20 µM | P50281 | HT1080 RFP-PRO-GFP cells, GFP/RFP ratio fluorescence, overnight; percent of plate control window, DMSO zero;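 active means GFP/RFP ratio change of at least 30% with cell ATP level not reduced by more than half and red fluorescence within 50% of control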; further: strong numbers were not always called active
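Assay system: RFP-PRO-GFP reporter HT1080 cells; read-out basis: GFP/RFP fluorescence ratio; benchmarks: DMSO wells and RFP-L50D-GFP cells; doses: 20 µM single dose, 1% DMSO; schedule: overnight cell settling, then overnight compound exposure, 37 °C, 5% CO2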
HIV Env fusion: HIV envelope-mediated fusion inhibition; HeLa-JRFL Env/CEM21 cell fusion, luciferase; inhibition, % at 12.3 µM; 1.1% of 360,000 active;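 active means mean replicate inhibition score of at least 50 and every replicate individually at or above 50; inconclusive means only one of the two criteria met; inactive means mean below 50 and not all replicates reaching 50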;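 further: 0% = plate neutral controls and 100% = maraviroc near 300 nM; one replicate is shown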
Rce1 inh: inhibitors of yeast Ras-converting enzyme; calls only; yeast membranes, quenched prenylated peptide cleavage fluorescence; AID 2563; 0.27% of 290,000 active; Q03530;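 active means fall in fluorescence gain of 50% or more versus controls, with final raw signal at or below 3038400; inconclusive means same 50% fall but final raw signal above 3038400; inactive means fall in fluorescence gain under 50%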;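 further: plate controls were neutral control wells for no effect and wells lacking membranes for full effect; tested at 10 µM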
Target sequence (Q03530 whole entry, looked up): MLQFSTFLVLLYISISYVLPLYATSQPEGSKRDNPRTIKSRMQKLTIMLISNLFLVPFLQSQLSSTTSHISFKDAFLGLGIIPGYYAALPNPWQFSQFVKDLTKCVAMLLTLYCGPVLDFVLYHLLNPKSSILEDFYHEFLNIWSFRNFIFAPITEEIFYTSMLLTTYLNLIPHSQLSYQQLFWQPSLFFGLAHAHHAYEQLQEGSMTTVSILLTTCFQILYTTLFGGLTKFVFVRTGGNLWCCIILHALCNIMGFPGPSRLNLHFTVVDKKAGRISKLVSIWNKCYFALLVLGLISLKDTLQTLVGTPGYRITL
PABP FP inh: PABP-poly(A) binding inhibition; P11940; PABP-poly(A) RNA binding, fluorescence polarization; inhibition, % at 35 µM; 1% of 290,000 active; AID 2014;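 active means 50% or more with normal probe brightness, or confirmed in later tests; inconclusive means above 50% with abnormal brightness, or retests that disagree; inactive means below 50% or failed in later tests; about a fifth of its hits are not listed in these tables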;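 further: calls also rest on retests at 20 µM and on dose response follow-up; controls were probe without protein and protein plus probe with vehicle; some compounds called inactive have numbers as strong as hits; many hits fall short of the cut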
CSC inhib: cancer stem cell inhibition; AID 2717; 1.1% of 300,000 active; cancer stem cell-like cells viability, luminescence; inhibition, % at 7.5 µM;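 active means mean at 75% or more and at least half the replicates too; inconclusive means mean and replicates disagree; tested in HMLE shEcad cells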;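 further: 0% = median of negative and 100% = median of positive control wells; the first replicate is given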
UUG fidelity: alters start codon recognition fidelity in yeast. S. cerevisiae UUG-firefly luciferase reporter, luminescence/redox ratio. activity score, % at 18.7 µM. 0.13% of 350,000 active;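 active means replicate mean at a twofold rise or more, about +100% in these data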;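 further: firefly luciferase made from a UUG start codon reports start codon fidelity; reporter light over untreated wells divided by growth signal over untreated wells; some hits fall short of that in this replicate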
eIF4H inh: inhibitors of RNA binding by human eIF4H. eIF4H fluorescence polarization binding assay. inhibition, % at 35 µM. 0.94% of 290,000 active;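 active means 50% or more with normal probe brightness, or confirmed in later tests; inconclusive means above 50% with abnormal brightness, or retests that disagree; inactive means below 50% or failed in later tests; about a fifth of its hits are not listed in these tables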;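 further: calls also rest on retests at 20 µM and on dose response follow-up; 0% = protein and probe with vehicle and 100% = probe without protein; strong numbers were not always called active; many hits fall short of the cut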
MT1-MMP act inh RFP: further read-out of MT1-MMP act inh, marked with its call; RFP signal change, %; measured here: RFP expression control read;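 0 = vehicle wells; hits needed this value within 50% of zero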
Active calls of the source: *; i = inactive; ? = inconclusive; . = no result given.

SMILES	MT1-MMP act inh	MT1-MMP act inh RFP	HIV Env fusion	Rce1 inh	PABP FP inh	CSC inhib	UUG fidelity	eIF4H inh
CC(=O)Oc1ccc(OC(C)=O)c2c1CC(C)=C(C)C2	-7	-3	-5	i	2	-1	-1	-7
CSc1ccc(CN2CCN(C(=O)CC(C)C)CC2)cc1	4	-8	-1	i	1	-9	-8	10
COc1cccc2c1OCC(C(=O)Nc1nccs1)=C2	-4	0	-26	i	-8	6	-14	-3
COc1ccc(-c2nc(NCCCN(C)C)c3ccccc3n2)cc1	2	-4	-48	i	12	-2	-3	-9
OC[C@@H]1CN(Cc2ccc(-c3ccccc3)cc2)C[C@H](n2cnc3c(N4CCCC4)ncnc32)O1	-1	-8	-4	.	.	.	-4	.
O=C(c1cc2ccccc2oc1=O)N1CCCC1	-6	-4	-23	i	0	3	-13	-6
C/C=C\C(=O)Nc1cccc(C2=NOC3(C2)C[C@@H](C(N)=O)N(C(=O)COc2ccc(Cl)cc2)C3)c1 (some centres undefined)	-3	-2	14	i	1	-10	20	7
COc1ccc2c(c1)[nH]c1c(=O)n(CCCN3CCOCC3)cnc12	11	5	.	i	-2	-17	15	-14
Cc1ccc(NC(=O)c2cc(N3C(=O)C4CC=CCC4C3=O)ccc2N2CCOCC2)cc1Cl (centres undefined)	2	-7	.	i	-3	-8	-12	-7
O=C(c1ccccc1)c1ccc(COC(=O)c2cnccn2)cc1	1	5	14	i	-2	-8	.	-5
Cc1ccc(C(=O)NNC(=O)c2ccccc2-n2cccc2)cc1	-1	0	1	i	3	0	.	-1
O=C(N[C@@H](Cc1c[nH]c2ccccc12)C(=O)O)c1ccc(Cl)cc1	-1	2	9	i	4	-12	.	6
CN(CC(=O)Nc1ccc(N2CCOCC2)cc1)CC(=O)Nc1ccccc1C#N	3	3	3	i	5	.	-9	-14
Cc1ccc(NC(=O)CC2C(=O)NCCN2C(=S)Nc2ccccc2)c(C)c1 (centres undefined)	3	5	-16	i	31	2	-25	2
CCOC(=O)c1sc(NC(=O)c2ccoc2C)c(C(N)=O)c1C	-3	4	-8	.	4	3	1	3
COc1cc(/C(C)=N/N2CCN(c3ccccc3OC)CC2)ccc1O	6	-3	-1	i	8	-9	-6	-12
CCOC(=O)c1c(-c2ccccc2)nnn1-c1nc(OCC)nc(N2CCCCC2)n1	-7	-15	-48	i	3	-3	-3	0
CCOC(=O)C(=O)Nc1ccc(F)cc1	2	5	.	i	-11	4	-4	-8
COc1ccc(C)cc1NC(=O)CN1C(=O)CSc2ccc(S(=O)(=O)N3CCCC3)cc21	2	1	14	i	.	-8	6	.
O=C(COc1ccc(F)cc1)NCC1CCCO1 (centres undefined)	-6	2	-48	i	-3	-13	-10	-2
CCCNC(=O)CCn1nc(-c2ccc(C)cc2)c2ccccc2c1=O	1	-1	37	i	8	-6	-13	5
O=C(CSc1nnc2ccc(-c3ccc(F)cc3)nn12)N1CCOCC1	3	3	-59	i	.	-11	7	.
O=C(NCCCNC(=O)c1ccccc1)c1ccccc1	5	5	-8	i	.	-9	-26	.
Cc1ccccc1S(=O)(=O)Cc1ccc(C(=O)N2CCN(c3cccc(C)c3C)CC2)o1	-20	-23	.	i	-6	66	-1	7
O=C(CSc1ncn[nH]1)N(C1CCCCC1)C1CCCCC1	-6	-2	-119	i	3	-7	-22	-9
C/C(=N/OC(=O)c1ccc(Cl)cc1Cl)c1oc(C)nc1C	2	0	9	i	2	0	.	-12
COc1ccc(OC)c(S(=O)(=O)N2CCc3ccccc3C2)c1	-1	-5	-3	.	-6	3	-8	1
COc1ccc(NC(=O)N2CCN(S(=O)(=O)c3ccc(F)cc3)CC2)c(OC)c1	-3	0	3	i	-2	-13	-5	2
COc1ccccc1-c1sc2cc3c(cc2c1-c1ccc(OCCN2CCCCC2)cc1)OCO3	-7	-9	-1	.	.	.	-4	.
COc1ccc(CCNC2=NCCS2)cc1	2	0	.	i	-2	-6	-22	-4
CC(C)(C)NC(=O)CSc1nc2ccccc2c(=O)[nH]1	-1	2	2	i	-2	-7	1	2
COC(=O)CCC(=O)OC1(C)C(=O)C=C2C=C(C3CC3)N(C(CO)CO)C=C2C1=O (centres undefined)	6	10	2	i	39	-10	-14	33
CCOC(=O)c1oc2ccccc2c1NC(=O)CN1CCOCC1	0	0	-36	i	-5	7	.	-2
O=C(CSc1nncc2ccccc12)Nc1ccc(F)cc1	-4	-3	1	i	3	6	-6	-5
CC(C)c1ccc(S(=O)(=O)N2CCN(C(=O)c3ccco3)CC2)cc1	3	-5	1	i	3	9	0	0
CCOc1ccc(C(=O)CN2CCN(S(=O)(=O)c3ccc(F)cc3)CC2)cc1	-1	2	.	i	-2	3	7	-1
CCCCn1c(NCc2ccccc2O)nc2ccccc21	3	-2	-54	i	-7	-3	1	0
CCOC(=O)c1sc2ncc([N+](=O)[O-])cc2c1N	2	1	13	i	5	29	.	-3
CCOCCCNC(=O)CN1C(=O)c2ccccc2Sc2ncccc21	-2	4	14	i	12	-13	-16	-1
CC(OC(=O)c1cc2sccc2n1C)C(=O)NCCc1ccccc1 (centres undefined)	3	1	.	i	-13	37	0	1

Brought forward from above: 2 entries; new compounds follow.
SMILES	MT1-MMP act inh	MT1-MMP act inh RFP	HIV Env fusion	Rce1 inh	PABP FP inh	CSC inhib	UUG fidelity	eIF4H inh
CCOCCCNC(=O)CN1C(=O)c2ccccc2Sc2ncccc21	-2	4	14	i	12	-13	-16	-1
CC(OC(=O)c1cc2sccc2n1C)C(=O)NCCc1ccccc1 (centres undefined)	3	1	.	i	-13	37	0	1
CC1(C)[C@H]2CC=C(CN3CCC(N4CCC(C(=O)N5CCCC5)CC4)CC3)[C@@H]1C2	9	10	2	i	2	29	-10	-3
Fc1cc(F)cc(NC(=S)Nc2ccccc2N2CCOCC2)c1	1	4	14	i	-3	-4	.	4
CN(C)CCCN(C(=O)c1ccc(S(=O)(=O)N2CCOCC2)cc1)c1nc2cc3c(cc2s1)OCO3	-1	2	6	i	-4	-1	-2	-9
Cc1ccc(C)c(NC(=O)c2cc([N+](=O)[O-])cc([N+](=O)[O-])c2)c1	3	-3	24	i	0	-4	-3	-6
O=C(O)c1ccc(S(=O)(=O)Nc2ccc(F)c(Cl)c2)cc1	1	2	.	i	-7	11	-13	-11
COc1ccccc1N1CCN(C(=O)c2ccc3c(=O)n(Cc4ccc5c(c4)OCO5)c(=O)[nH]c3c2)CC1	11	-10	.	i	9	15	.	-6
COc1ccccc1NC(=O)C(=O)NCC(c1ccco1)N1CCc2ccccc21 (centres undefined)	-1	-3	1	i	.	2	-12	.
Cc1ccc(C(=O)Nn2cnnc2)cc1[N+](=O)[O-]	4	3	.	i	.	-15	-4	.
O=C1CSC(=S)N1/N=C/c1cc(Br)c(O)c(Br)c1	7	49	.	i	?	-11	-3	?
CCN(CC)CCNC(=O)c1ccc(NC(=O)c2cc(-c3ccncc3)nc3ccccc23)cc1	2	-1	-2	.	.	7	-3	.
O=C(O)c1nn(-c2ccc(Cl)cc2)ccc1=O	-5	-4	-48	i	-3	-10	2	4
CCC(C(=O)OCC(=O)Nc1ccc(Cl)c(S(=O)(=O)N(C)C)c1)c1ccccc1 (centres undefined)	2	-2	-3	i	-2	-18	.	-7
CCOC(=O)c1cnn(-c2nc(-c3ccc(F)cc3)cs2)c1C(F)(F)F	-3	1	-144	i	-7	9	-15	-2
Cn1c(C(=O)N2CCC(C(=O)N3CCOCC3)CC2)cc2sccc21	3	1	10	i	12	-1	2	-4
C/C(=N\NC(=O)CCc1ccccc1)c1ccc(Br)cc1	1	2	-13	i	5	-4	.	2
O=C(CSc1nnnn1-c1ccc(O)cc1)Nc1ccc(N2CCOCC2)c(Cl)c1	7	4	-55	i	-3	.	-15	-1
Cc1cccc(NC(=S)NCc2cccn2C)c1	2	0	-38	i	4	0	-26	0
O=C(CSC1=Nc2ccccc2C2CC=NN12)Nc1ccc(F)cc1Cl (centres undefined)	.	.	17	.	-8	3	.	-5
O=C(NCC(=O)N1CCCCC1)c1ccc(Br)o1	3	6	4	i	6	20	-5	3
O=C(Cn1c(=O)c2cccn2c2ccccc21)Nc1ccc(F)cc1F	5	7	-4	i	25	-14	-11	18
O=C(NCc1ccccc1)C1=C[C@@H](c2ccc(Br)cc2)C[C@@H](OCCCCO)O1	3	-6	-10	i	6	2	-21	-8
Cc1ccc(OC(=O)C2c3ccccc3Oc3ccccc32)cc1C	-2	2	7	i	1	-9	.	-2
Cc1nn(-c2ccccc2)c2[nH]c(=O)cc(C(F)(F)F)c12	0	1	-11	i	-7	11	-11	-6
CC(=O)c1cccc(NC(=O)CN(c2ccccc2)S(C)(=O)=O)c1	8	-4	.	i	9	-9	-5	7
Nc1cc(-c2ccc(Cl)cc2)nn1S(=O)(=O)c1ccccc1	5	-2	32	i	8	34	-1	3
COc1ccccc1CNS(=O)(=O)CCNC1CC1	4	3	16	.	.	.	-21	.
COc1ccc(CCN=C(N)Nc2nc(C)cc(C)n2)cc1	-2	0	8	i	1	-10	-1	-7
CC1CCCC(NC(=O)C2CCN(S(=O)(=O)N3CCCCCC3)CC2)C1C (centres undefined)	0	-5	-1	i	12	1	-8	-4
Cc1ccc(O)c(-c2cc(C(=O)Nc3ccc(S(=O)(=O)Nc4nccc(C)n4)cc3)[nH]n2)c1	17	-3	20	i	19	8	-24	5
CCOC(=O)c1ccccc1NC(=O)COC(=O)C1CC(=O)N(CCc2ccccc2)C1 (centres undefined)	1	7	-11	i	.	0	.	.
CCCn1nnnc1-c1cccc(Cl)c1	1	-1	-12	i	4	-3	-19	-4
CC(C)N1CC=C2C(C#N)=C(N)C(C#N)(C#N)[C@H](c3ccoc3)[C@H]2C1	.	.	.	i	?	8	.	?
Cc1nc2ccc(C(=O)N3CCN(c4ccccc4)CC3)cc2s1	-8	-10	9	i	-2	-6	-3	5
CCn1c(SCc2ccc(C(=O)Nc3nccs3)cc2)nnc1-c1ccc(NC(C)=O)cc1	-10	-8	.	i	3	2	-6	-2
c1cc2c(cc1CNc1ccc(N3CCOCC3)cc1)OCO2	9	4	-51	.	.	.	-22	.
CC1C(=O)N2CCCc3cc(NC(=O)CC(C)(C)C)cc1c32 (centres undefined)	1	3	13	i	4	-3	-5	6
O=C(C1Cc2ccccc2CN1C(=O)c1ccccc1)N1CCN(c2ccccc2)CC1 (centres undefined)	8	0	-5	i	18	-6	-4	18
CCc1ccc(-c2cc(C)no2)cc1S(=O)(=O)N1CCN(c2ccccc2F)CC1	-5	-12	-5	i	2	29	7	6
COc1ccccc1NC(=O)c1sc(Cl)nc1C	-2	1	6	i	-8	-9	-14	1
O=C1C2C3C=CC(C4CC34)C2C(=O)N1c1ccc2c(c1)OCO2 (centres undefined)	-2	-12	8	i	0	4	.	5
CCN1C(=O)/C(=C/c2ccc(C)s2)NC1=S	1	-3	.	i	-6	0	-23	-9
CCC1CCCCN1CCCNC(=O)c1cn(CC(C)C)c(=O)c2cc(OC)c(OC)cc12 (centres undefined)	-10	-1	-9	i	8	-8	.	-1

Results in HIV Env fusion, MT1-MMP act inh RFP and eIF4H inh (four entries from above):
Compound | HIV Env fusion | MT1-MMP act inh RFP | eIF4H inh
Cc1ccccc1S(=O)(=O)Cc1ccc(C(=O)N2CCN(c3cccc(C)c3C)CC2)o1 | . | -23 | 7
c1cc2c(cc1CNc1ccc(N3CCOCC3)cc1)OCO2 | -51 | 4 | .
Cc1cccc(NC(=S)NCc2cccn2C)c1 | -38 | 0 | 0
COc1ccc(C)cc1NC(=O)CN1C(=O)CSc2ccc(S(=O)(=O)N3CCCC3)cc21 | 14 | 1 | .

Only part of the results is shown; rates above refer to the full screens.
